Screening data (PubChem)
AF4-AF9 inh: blocks AF4 peptide binding to human AF9; inhibition, % at 10 µM; AID 651704; 350,000 tested, 0.47% active; P42568; AlphaScreen, biotin-AF4 peptide binding to FLAG-AF9;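 active means every replicate reaching a set inhibition limit, whatever the replicate mean, cut at about 25% in these data; inconclusive means mean inhibition reaches that limit but some replicates miss it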;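 further: 0% = plate neutral control median and 100% = total signal loss; the record names both 10 and 1 µM as test concentration; the first replicate is given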
Target sequence (P42568 whole entry, looked up): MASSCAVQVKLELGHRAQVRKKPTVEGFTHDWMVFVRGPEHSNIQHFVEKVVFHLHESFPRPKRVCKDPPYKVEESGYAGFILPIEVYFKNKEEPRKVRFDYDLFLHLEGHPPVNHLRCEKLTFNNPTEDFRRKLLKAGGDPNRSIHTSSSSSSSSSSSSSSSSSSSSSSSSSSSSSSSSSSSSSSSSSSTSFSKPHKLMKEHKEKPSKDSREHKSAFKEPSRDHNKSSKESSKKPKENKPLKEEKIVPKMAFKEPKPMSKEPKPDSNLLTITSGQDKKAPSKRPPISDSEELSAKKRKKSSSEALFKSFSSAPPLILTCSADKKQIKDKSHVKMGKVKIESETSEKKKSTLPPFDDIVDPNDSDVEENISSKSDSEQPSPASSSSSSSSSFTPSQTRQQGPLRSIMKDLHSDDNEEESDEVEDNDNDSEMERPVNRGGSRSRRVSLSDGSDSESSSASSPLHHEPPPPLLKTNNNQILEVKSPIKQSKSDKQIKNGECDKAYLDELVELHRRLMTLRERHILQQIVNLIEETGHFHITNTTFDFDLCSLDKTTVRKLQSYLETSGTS
rRNA inh HTS: selective bacterial rRNA inhibition in E. coli; 350,000 tested, 1.6% active; AID 720706; E. coli WT GFP vs humanized-ribosome RFP mutants, fluorescence, 24 h; hits give low values; DMSO median 0, no signal -100; GFP signal change (wild-type ribosome), % (no concentration beside the values);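 active means significant combined selectivity score with lowered wild-type GFP, culture density cut under 30%, mutant RFP and density less affected; inactive means any of these conditions unmet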; further: one replicate is shown; some compounds called inactive have numbers as strong as hits
RanGTP-Imp inh: inhibitors of RanGTP-importin-beta interaction, primary screen, biochemical, FRET, CFP-Ran, YFP-importin-beta, homogeneous; cell-free CFP-Ran/YFP-importin-beta FRET ratio; inhibition, % (no concentration beside the values); 300,000 tested, 1.1% active; AID 2216;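 active means most replicates above 15%; inconclusive means exactly half above 15%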;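 further: 0% = DMSO wells and 100% = Ran loaded with GDP instead of GTP; wells of about 40 µL received 100 nL stock; the first replicate is given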
Beta cell apopt: blocks beta cell apoptosis | INS-1E cytokine-induced death, ATP luminescence, 48 h; percent of positive-control rescue, neutral wells zero | protection from apoptosis, % (no concentration beside the values) | 300,000 tested, 0.8% active | AID 435005;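 active means all replicates at 75% or more, or half of them and the mean; inconclusive means half reach 75% but not the mean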;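 further: 0% = cytokine-treated negative control wells and 100% = positive control rescue; higher means more ATP so stronger rescue from cytokine killing; wells of about 40 µL received 100 nL stock; the first replicate is given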
ALR H2O2 inh: inhibitors of human sulfhydryl oxidase ALR. P55789. inhibition, % (concentration not given with the values). 290,000 tested, 3.8% active. purified ALR, DTT oxidation, H2O2 HRP-luminol luminescence. AID 485317;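 active means mean and each replicate at 75% or more; inconclusive means only one of the two met; inactive means neither met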;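 further: stock transfer was 7.5 nL into about 7.5 µL; 0% = neutral wells and 100% = wells with inactivated enzyme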
Target sequence (P55789 whole entry, looked up): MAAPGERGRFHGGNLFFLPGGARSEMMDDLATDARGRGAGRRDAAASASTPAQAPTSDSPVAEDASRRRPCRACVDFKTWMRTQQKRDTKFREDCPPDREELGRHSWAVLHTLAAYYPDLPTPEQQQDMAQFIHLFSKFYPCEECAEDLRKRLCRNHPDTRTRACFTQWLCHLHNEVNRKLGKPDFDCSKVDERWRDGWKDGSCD
T cruzi inh: T. cruzi replication inhibition | inhibition, % (test concentration not listed) | 300,000 tested, 1.4% active | T. cruzi beta-gal in NIH3T3, luminescence, 90 h | AID 1885;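 active means mean inhibition across valid replicates above about 55%, limit read from the data; inconclusive means mean below that limit but half or more replicates reach it; inactive means mean below it, under half of replicates reach it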;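 further: signal also drops with host cell toxicity which is not excluded here; 0% = plate median of DMSO wells and 100% = zero luminescence signal; higher percent means less beta-gal luminescence so fewer parasites; stock transfer was 50 nL into about 50 µL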
FGF22 binding: FGF22 (human) thermal shift binding; AID 651658; 340,000 tested, 1.5% active; calls only at 9.99 µM; recombinant FGF22 thermal shift, SYPRO orange fluorescence; percent of sucrose octasulfate shift, DMSO zero;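 active means melting point raised past a set limit in the mean and every replicate; inconclusive means no clear call; three in four hits are not shown here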
Target sequence (Q9HCT0 whole entry, looked up): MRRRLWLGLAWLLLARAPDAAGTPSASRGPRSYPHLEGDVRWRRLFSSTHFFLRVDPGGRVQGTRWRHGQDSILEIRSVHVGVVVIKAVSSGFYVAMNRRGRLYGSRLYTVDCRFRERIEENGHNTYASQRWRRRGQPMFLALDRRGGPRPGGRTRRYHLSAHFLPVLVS
Calb FLC: C. albicans growth modulation with fluconazole. C. albicans CaCi-2 (fluconazole-resistant clinical isolate) + fluconazole, Alamar Blue growth, 48 h. growth inhibition, % (test concentration not listed). 300,000 tested, 0.57% active;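 active means most replicates above 75%; inconclusive means exactly half above 75%; inactive means most below 75%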;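 further: all wells also contain fluconazole at 8 µg/ml as a sub-toxic cotreatment; 0% = median of DMSO wells and 100% = median of geldanamycin control wells; wells of about 8 µL received 7.5 nL stock; the first replicate is given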
rRNA inh HTS OD600: also measured in rRNA inh HTS; calls as there; OD600 change, %; measured here: OD600 growth;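 optical density of the mix in the first replicate; 0 = DMSO median and -100 = no signal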
rRNA inh HTS RFP: recorded beside rRNA inh HTS, whose call it bears; RFP signal change, %; measured here: RFP humanized mutant strains;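 first replicate; 0 = DMSO median and -100 = no signal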
Starred values were filed as active, the others as inactive; i = inactive; ? = inconclusive; . = not tested or not shown.

Values run as follows: AF4-AF9 inh, rRNA inh HTS, rRNA inh HTS OD600, rRNA inh HTS RFP, RanGTP-Imp inh, Beta cell apopt, ALR H2O2 inh, T cruzi inh, FGF22 binding, Calb FLC
CS(=O)(=O)NCc1ccc(C(=O)NCc2ccccc2)cc1
    -1.6, ., ., ., -0.8, 0, -2, -11, ., 3
O=C(COc1ccc(Cl)cc1)NNC(=O)c1ccc(=O)[nH]c1
    6.0, 14, 19, 5.2, ., -1, ., ., i, .
O=C(Nc1ccccc1Br)c1ccc2nccnc2c1
    -3.6, -4, -10, -0.8, 7.0, -2, 2, -10, i, 0
Clc1ccc(Nc2nc(N3CCOCC3)nc(N3CCOCC3)n2)cc1Cl
    -4.7, 14, 15, 2.1, 5.6, -3, 0, 31, i, -11
O=C(NC(=O)N1CCCCC1)c1ccc(Cl)cc1
    -0.9, 12, 11, 0.0, 0.1, -14, -2, -3, i, 0
Cn1ccnc1C(O)c1ccco1 (stereo not drawn)
    -41, 6, -3, -2.5, -4.5, ., -20, -6, i, -3
CCOC(=O)CC(=O)CSc1ncc(C(=O)OCC)c(N)n1
    ., ., ., ., -0.1, 1, 67, 4, ., 7
COc1ccc(C2c3[nH]c4ccccc4c3C[C@H]3C(=O)N(CCCO)CC(=O)N23)c(OC)c1 (stereo partly drawn)
    1.5, -6, -12, -3.2, -4.0, 1, 99*, 6, i, 3
Cc1ccc2nc(SC(C)C(=O)N3CCCCC3)[nH]c2c1 (stereo not drawn)
    -1.3, 2, 4, -4.8, 9.8, -7, -8, 1, i, -2
Cc1nn(C)c(C)c1S(=O)(=O)N(CC(=O)NCCCN1CC(C)CC(C)C1)c1ccc(C(C)C)cc1 (stereo not drawn)
    -1.0, -3, 5, -3.3, 4.3, 0, -3, 31, ., 0
Brc1ccc2[nH]c3c(c2c1)CCC3
    5.2, -16*, 8.5*, 2.5*, -0.2, -6, ., 6, i, 1
O=C(CSc1ccc(-c2ccco2)nn1)NCc1ccc(Cl)cc1
    ., ., ., ., -0.2, -5, ., 1, ., -9
CS(=O)(=O)c1ccc(NC(=O)CCCc2nc3ccccc3c(=O)[nH]2)cc1
    -1.2, 9, 9, 0.3, -2.0, -3, -4, -4, i, .
Cc1ccc(NC(=S)NC2CCN(Cc3ccccc3)CC2)cc1C
    10, 5, 1, 0.9, -1.2, 6, 0, -4, i, -1
O=C(CCc1ccc(F)c(F)c1)NC1CCCN(Cc2ccc(Cl)cc2)C1 (stereo not drawn)
    -3.6, -17, -12, 1.0, 5.3, -6, ., 38, i, -7
COc1cc(-c2ccc(NC(C)=O)c(OC)c2)ccc1NC(C)=O
    ., 13, -7, 0.0, 1.8, ., ., -6, i, -10
CCOC(=O)c1c(C=O)c(C)n(Cc2ccccc2)c1C
    ., ., ., ., 2.6, 1, 39, 3, ., 14
N#C/C(=C/c1ccc(N2CCCC2)c([N+](=O)[O-])c1)c1nc2ccccc2[nH]1
    ., ., ., ., 2.9, 3, 2, 11, ., 18
O=C(CC(=O)NN=C1CCCCCC1)NCc1cccnc1
    -4.5, 15, 26, -0.2, -0.6, -3, 2, -2, i, -12
COc1ccc(CN(CC(=O)NC2CCCC2)C(=O)CCC(=O)Nc2cc(C)on2)cc1
    ., ., ., ., 5.3, 0, -2, -2, ., -3
O=C(NCCCO)/C(=C\c1ccco1)NC(=O)c1ccco1
    -6.7, 23, 13, 12, -0.7, -4, -11, -7, i, 2
Cc1cccc(NC(=O)CCC(=O)N/N=C/c2cc([N+](=O)[O-])ccc2O)c1
    ., ., ., ., 1.7, 10, ., -2, ., ?
Cc1nnc(NC(=O)C2CCCO2)s1 (stereo not drawn)
    ., ., ., ., 5.4, -4, -12, 0, ., 3
COc1ccc(S(=O)(=O)Cc2ccc(C(=O)NCCCN3CCc4ccccc4C3)o2)cc1
    11, 9, 8, 1.8, 8.1, -3, -15, 9, i, -7
O=C(CSCc1ccc(Br)cc1)NCc1ccccn1
    -2.3, -19*, 2.5*, 1.3*, -3.1, 8, ., -17, i, -19
CC(CN1CCCCC1)OC(=O)COc1ccc(Cl)cc1 (stereo not drawn)
    0.9, 4, 6, -0.5, 7.4, -6, 1, -4, i, -5
CC(NC(=O)c1ccc2ccccc2n1)c1ccc(S(N)(=O)=O)cc1 (stereo not drawn)
    -1.3, 0, -3, -1.5, 1.1, 0, -8, 1, i, 27
COc1cccc(NC(=S)N2CCN(S(=O)(=O)c3ccc(F)cc3)CC2)c1
    0.1, -2, -1, 0.7, ., -5, -2, ., i, -12
O=[N+]([O-])c1cc(-c2csc(NCCc3nc4cc(Cl)c(Cl)cc4n3CCCO)n2)ccc1Cl
    -1.4, -7, -7, 2.1, ?, -1, 9, -7, i, 1
COc1ccc2c(c1)CCCN2S(=O)(=O)c1ccc(Cl)cc1
    2.2, -31, -31, -2.6, -4.7, 0, -13, 25, i, 5
O=C(O)CC/C(=N\Nc1ccc([N+](=O)[O-])cc1)c1ccccc1
    3.0, -28, -31, -5.6, -2.9, 6, 98*, 10, i, 3
CCn1ncc(NC(=S)Nc2ccc3c(c2)OCO3)c1C(N)=O
    -3.7, 10, -1, -2.6, 4.0, ., 15, -2, i, -4
COc1ccc(N=CC2=C(O)CCCC2=O)cc1
    ., 2, 11, -2.5, -0.8, 4, 40, 12, ., -13
CCCN(CC(=O)Nc1ccccc1C)C(=O)c1ccc(-c2ccccc2)cc1
    -2.3, -33, -59, 6.4, -1.7, -3, 17, 13, i, 2
COc1ccccc1C(=O)N1CCN(Cc2nc3cc([N+](=O)[O-])ccc3n2C)CC1
    -1.6, 0, -1, 2.7, -4.1, -5, -8, 11, ., -7
Cc1nn(Cc2noc(C(=O)NCCCn3ccnc3)n2)c(C)c1Br
    -0.9, 19, 0, 1.9, 0.0, 0, 1, -10, i, -12
COc1ccc(Cc2nnc(Cl)c3ccccc23)cc1OC
    6.2, 1, 4, 0.5, -0.5, -2, -43, -3, i, -4
Cn1cc(Cl)c(-c2n[nH]c(=S)n2-c2ccccc2)n1
    ., ., ., ., 0.2, -4, 46, 13, ., -5
Cc1ccccc1Nc1nc(N)nc(COC(=O)CC2CC3CCC2C3)n1 (stereo not drawn)
    ., ., ., ., 4.3, -10, 35, -9, ., -1
O=C(CN1C(=O)C2CC=CCC2C1=O)Nc1ccc(F)cc1F (stereo not drawn)
    -8.6, 7, 3, 1.3, ., -1, -1, ., i, .
CCOC(=O)c1c(SC)nc(SC)c2c1CCC2
    ., ., ., ., -0.1, -1, -8, 15, ., 6
CCN(Cc1cc(=O)n2cc(Cl)c(C)c(Cl)c2n1)Cc1nc2ccccc2c(=O)[nH]1
    2.2, -5, -9, -0.4, -1.3, -4, 22, 24, i, -1
OCCCc1n[nH]c(=S)n1-c1ccccc1
    -0.5, 12, 12, 0.4, -0.5, 0, 37, -6, i, -4
CN1CCN(C(=O)Nc2ccc([N+](=O)[O-])cc2)CC1
    -0.8, 15, 15, 7.0, -2.4, -7, -4, 1, i, 1
Cc1nc2nc(SCc3nc4ccccc4[nH]3)[nH]c2cc1Br
    -1.1, 0, 6, -0.5, 0.7, 2, 1, -4, i, -8
O=C(OCc1ccc([N+](=O)[O-])cc1)C1CC(=O)N(Cc2ccccc2Cl)C1 (stereo not drawn)
    -7.4, -3, -4, -1.3, -3.7, 2, -9, -10, i, 1
CCN1C(=O)/C(=C\N(C)C)S/C1=N\S(=O)(=O)c1ccc(C)cc1
    -2.5, 4, 14, 0.1, -0.7, -6, 1, -3, i, -14
O=C(Cn1c(=O)oc2ccccc21)Nc1ccc(F)c(F)c1
    1.1, 12, 15, 4.5, 1.8, -7, 4, -12, i, 6
NC(=O)[C@@H]1CCCN1Cc1nc(Cc2ccccc2Cl)no1
    -4.4, 10, 2, 3.4, -2.2, -2, -10, -8, ., 3
COc1ccc(C(=O)N(C)Cc2ccccc2)cc1Br
    -2.0, -27, -22, -4.6, 2.0, -7, 3, 20, i, -5
Cc1cccc(C)c1OCc1cc(C(=O)N2CCC[C@H]2C(N)=O)no1
    -1.2, 0, 7, -3.1, 1.5, -1, 0, -19, i, -6
COc1cccc(Cl)c1NC(=O)N1CCN(c2ccnc3cc(Cl)ccc23)CC1
    2.1, -32*, -8.3*, 1.9*, 6.1, 1, -10, 24, i, 6
CCOc1ccc(CCNC(=O)C2CCCN(S(=O)(=O)N3CC(C)CC(C)C3)C2)cc1OCC (stereo not drawn)
    -0.9, 9, 10, -3.2, -1.3, -5, -5, 24, i, -2
COc1cc([N+](=O)[O-])ccc1NC(=O)COC(=O)C1=NN(c2ccccc2)C(=O)CC1
    -0.4, 10, 3, 0.1, ., -1, -1, ., i, .
Cc1ccc(CNC(=O)c2ccc(COc3ccccc3)cc2)cc1
    0.1, 5, 9, 1.2, 1.7, 12, ., -53, i, -1
COc1ccccc1NC(=O)CN1CCN(C2c3ccccc3-c3ccccc32)CC1
    ., ., ., ., -3.0, 4, -5, 42, ., 0
FC(F)(F)c1cc(-c2ccco2)nc(NCc2ccc(Cl)cc2)n1
    ., ., ., ., -1.9, 8, ., 8, ., 3
COc1ccc(OC)c(NC(=S)NCCSc2ccc(C)cc2)c1
    14, -25, -33, -13, -1.6, -1, ., 1, i, 0
COc1ccc(-c2cc(C(F)F)n3ncc(C(=O)N4CCN(C(=O)c5ccco5)CC4)c3n2)cc1
    -11, -11, -11, 6.0, 5.8, ., 2, 4, i, -3
COc1ccc(Cl)cc1NC(=O)Nc1ccc(Br)cn1
    ., ., ., ., 1.2, 1, -7, 0, ., -3

Continuation.
Values run as follows: AF4-AF9 inh, rRNA inh HTS, rRNA inh HTS OD600, rRNA inh HTS RFP, RanGTP-Imp inh, Beta cell apopt, ALR H2O2 inh, T cruzi inh, FGF22 binding, Calb FLC
O=C(OCC(=O)N1CCCc2ccccc21)c1cccc(C(F)(F)F)c1
    -1.5, -13, -10, -2.0, -2.4, -3, ., -5, i, 4
Cc1ccc(C2CN(c3ccccc3)CC2C(=O)c2ccc(F)cc2)cc1 (stereo not drawn)
    ., ., ., ., 6.0, -6, ., 20, ., -19
CCOc1ccccc1NC(=O)COc1ccc2c(c1)OCO2
    -3.3, 7, 9, 0.1, -1.2, -1, ., 12, i, -9
Cc1ccc(NCCC(=O)c2cccc([N+](=O)[O-])c2)c(C)c1
    ., ., ., ., 2.7, -11, ?, 3, ., -1
Cc1cc(N2CCN(Cc3cn(C)nc3-c3cccc(Cl)c3)CC2)cc(C)n1
    1.7, -4, -6, 0.3, 12, 3, ., 5, i, 17
Cc1cc(NC(=O)CCC(=O)N(CC(=O)NCC2CCCO2)c2cccc(C)c2C)no1 (stereo not drawn)
    -2.0, 5, 3, 0.0, 2.5, 1, ., -9, i, 4
Cc1cccc(OC(C)C(=O)N2CCCc3ccccc32)c1 (stereo not drawn)
    9.5, -12, -8, -12, -1.2, 2, 0, 13, i, -9
CCOc1ccccc1NC(=S)NC1CCCCC1
    -2.1, ., ., ., -5.8, -2, 6, 4, i, -22
Nc1c(C(=O)NCc2ccco2)nnn1-c1ccccc1
    ., ., ., ., 2.9, -1, -1, 7, ., -4

This is a subset (hit frequency here may not be typical).
